MLL AF4-AF9 inh: inhibitors of human MLL-AF4/AF9 interaction; AlphaScreen, biotin-AF4 peptide binding to FLAG-AF9; inhibition, % at 10 µM; actives 0.47% (n = 350,000); P42568;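 active = every replicate reaching a set inhibition limit, whatever the replicate mean, cut at about 25% in these data; inconclusive = mean inhibition reaches that limit but some replicates miss it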;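 note: 0% = plate neutral control median and 100% = total signal loss; the record names both 10 and 1 µM as test concentration; the first replicate is given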
Target sequence (P42568 whole entry, looked up): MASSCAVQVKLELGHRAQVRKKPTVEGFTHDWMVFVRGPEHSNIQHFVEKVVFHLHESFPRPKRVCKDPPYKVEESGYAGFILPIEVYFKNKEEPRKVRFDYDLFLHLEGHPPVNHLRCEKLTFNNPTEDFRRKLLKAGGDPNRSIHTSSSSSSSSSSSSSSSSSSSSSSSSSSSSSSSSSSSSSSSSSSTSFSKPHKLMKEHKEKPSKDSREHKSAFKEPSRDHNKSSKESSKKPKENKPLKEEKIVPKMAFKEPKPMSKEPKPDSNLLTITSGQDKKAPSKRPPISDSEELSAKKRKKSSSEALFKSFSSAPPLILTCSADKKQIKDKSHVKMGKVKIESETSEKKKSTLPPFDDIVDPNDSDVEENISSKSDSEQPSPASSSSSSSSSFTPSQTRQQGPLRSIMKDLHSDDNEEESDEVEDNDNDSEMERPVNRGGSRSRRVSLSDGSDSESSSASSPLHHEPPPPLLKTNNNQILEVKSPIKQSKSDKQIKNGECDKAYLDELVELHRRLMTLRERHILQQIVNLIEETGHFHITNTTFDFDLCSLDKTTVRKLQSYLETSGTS
FGF22 binding: shifts melting point of recombinant human FGF22. calls only at 9.99 µM. actives 1.5% (n = 340,000). AID 651658. recombinant FGF22 thermal shift, SYPRO orange fluorescence; percent of sucrose octasulfate shift, DMSO zero. Q9HCT0;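 active = melting point raised past a set limit in the mean and every replicate; inconclusive = no clear call; three in four hits are not shown here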
Target sequence (Q9HCT0 whole entry, looked up): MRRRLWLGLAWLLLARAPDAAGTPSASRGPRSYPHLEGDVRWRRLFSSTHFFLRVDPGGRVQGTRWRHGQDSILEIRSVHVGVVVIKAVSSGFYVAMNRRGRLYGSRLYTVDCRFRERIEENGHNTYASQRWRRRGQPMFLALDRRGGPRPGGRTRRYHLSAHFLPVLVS
Numbers without * were called inactive; i = inactive; u = inconclusive. These rows are one share of the data; rates above refer to the full screens.

Second line of a record: MLL AF4-AF9 inh	FGF22 binding
O=C(C[C@@H]1C[C@H]2c3cc(NC(=O)Nc4ccccc4F)ccc3O[C@H]2[C@H](CO)O1)NCc1cc(F)ccc1F
  0.5	i
CN(C)c1ccc2c(c1)[C@@H]1C[C@H](CC(=O)N3CCc4ccccc4C3)O[C@H](CO)[C@@H]1O2
  6.1	i
CN1C(=O)c2cc(NC(=O)Nc3ccc(F)cc3)ccc2OC[C@@H]2O[C@@H](CC(=O)NC3CCC3)CC[C@@H]21
  0.3	i
COc1ccc(CN(C)C[C@@H]2Oc3ccc(NS(=O)(=O)c4ccc(F)cc4)cc3C(=O)N([C@H](C)CO)C[C@H]2C)cc1
  -0.7	i
CCS(=O)(=O)Nc1ccc2c(c1)C(=O)N(C)[C@H]1CC[C@@H](CC(=O)NC3CCCCC3)O[C@H]1CO2
  -0.5	i
C[C@@H]1CN([C@H](C)CO)C(=O)Cc2cc(NC(=O)Cc3ccccc3)ccc2O[C@@H]1CN(C)C(=O)NC1CCCCC1
  1.0	i
C[C@@H]1CCCCO[C@@H](CN(C)S(=O)(=O)c2cn(C)cn2)[C@@H](C)CN([C@H](C)CO)C(=O)c2cc(NC(=O)CCC(F)(F)F)ccc2O1
  0.9	i
Cc1noc(C)c1NC(=O)Nc1cccc2c1O[C@@H](CN(C)Cc1ccc(C(F)(F)F)cc1)[C@@H](C)CN([C@H](C)CO)C2=O
  -0.6	i
Cc1ccc2nc(-c3ccco3)c(Cc3ccccc3C(F)(F)F)n2c1
  2.6	i
CCNC(=O)C[C@H]1CC[C@H]2[C@H](COc3ccc(NC(=O)Nc4ccccc4OC)cc3C(=O)N2C)O1
  -1.1	i
C[C@H](CO)N1C[C@H](C)[C@@H](CN(C)Cc2ccc(C(F)(F)F)cc2)Oc2ccc(NS(=O)(=O)c3cn(C)cn3)cc2CC1=O
  -2.0	i
COCCOC(=O)N1C(=O)[C@@]2(c3cc(C#CCCO)ccc31)[C@H](C(=O)N1CCc3cc(OC)c(OC)cc3C1)[C@H]1C(=O)O[C@H](c3ccccc3)[C@H](c3ccccc3)N1[C@@H]2c1ccccc1OCCO
  1.2	i
C[C@@H]1CN([C@@H](C)CO)C(=O)c2cc(-c3cncnc3)cnc2O[C@@H]1CN(C)Cc1ccc(Oc2ccccc2)cc1
  9.3	i
C[C@H](CO)N1C[C@H](C)[C@@H](CN(C)C(=O)NC2CCCCC2)Oc2ccc(NS(=O)(=O)c3ccccc3)cc2CC1=O
  -1.0	i
CCCNC(=O)[C@@H]1[C@@H](CO)[C@@H]2Cn3c(ccc(C4=CCCC4)c3=O)[C@H]1N2C(=O)C1CC1
  3.3	i
CCCN1[C@@H]2c3ccc(-c4ccccc4OC)c(=O)n3C[C@H]1[C@H](CO)[C@H]2C(=O)NCc1ccccn1
  -0.5	i
CO[C@@H]1CC[C@H]2CCN(C)C(=O)[C@H](C)CN(C)C(=O)c3cc(C#N)ccc3OC[C@@H]1O2
  0.5	i
COc1ccc(NC(=O)N[C@@H]2CC[C@H](CCn3cc(-c4ccc(F)cc4)nn3)O[C@@H]2CO)cc1
  -9.1	i
CO[C@@H]1CC[C@@H]2CCOc3ccc(C#N)cc3C(=O)N(C)C[C@H](c3ccccc3)CC(=O)N(C)C[C@H]1O2
  1.0	i
C[C@H](CO)N1C[C@H](C)[C@H](CN(C)C(=O)Nc2ccc(C(F)(F)F)cc2)Oc2ccc(NC(=O)CCCCCC(=O)Nc3ccccc3N)cc2C1=O
  -0.3	i
COC(=O)C[C@H]1CC[C@H](NS(=O)(=O)c2ccccc2F)[C@H](CO)O1
  0.4	i
C[C@H]1CCCCO[C@@H](CN(C)S(=O)(=O)c2cn(C)cn2)[C@@H](C)CN([C@@H](C)CO)C(=O)c2cc(NC(=O)NC3CCCCC3)ccc2O1
  2.5	i
Cc1ccc(-c2ccc3c(c2)O[C@H](CN(C)C(=O)Nc2ccccc2)[C@H](C)CN([C@@H](C)CO)S3(=O)=O)cc1
  0.9	i
C[C@@H]1CN([C@@H](C)CO)C(=O)c2c(c3ccccc3n2C)-c2ccccc2CO[C@@H]1CN(C)S(=O)(=O)c1ccccc1C#N
  -0.9	i
CC(C)NC(=O)Nc1ccc2c(c1)C(=O)N([C@@H](C)CO)C[C@@H](C)[C@H](CN(C)S(=O)(=O)c1cn(C)cn1)O2
  -1.7	i
C[C@@H]1CCCCO[C@@H](CN(C)C(=O)c2ccncc2)[C@H](C)CN([C@@H](C)CO)C(=O)c2cc(NC(=O)c3ccccc3)ccc2O1
  -0.1	i
CO[C@@H]1CN(C)C(=O)c2ccc(NC(=O)C3CC3)cc2OC[C@H](C)N(Cc2ccc(F)cc2)C[C@@H]1C
  2.7	i
O=C(C[C@H]1CC[C@@H]2[C@H](COC[C@@H](O)CN2C(=O)Nc2ccc(F)cc2)O1)NC1Cc2ccccc2C1
  -5.8	i
Cc1noc(C)c1NC(=O)N(C)C[C@@H]1Oc2c(NC(=O)C3CCOCC3)cccc2C(=O)N([C@H](C)CO)C[C@@H]1C
  -1.3	i
C[C@H]1CN([C@@H](C)CO)C(=O)c2cc(NC(=O)C3CC3)ccc2O[C@H]1CN(C)Cc1ccc(Oc2ccccc2)cc1
  -0.1	i

Second line of a record: MLL AF4-AF9 inh	FGF22 binding
Cc1ccc(S(=O)(=O)Nc2ccc3c(c2)CC(=O)N([C@@H](C)CO)C[C@@H](C)[C@@H](CN(C)Cc2ccc(Cl)c(Cl)c2)O3)cc1
  2.7	i
C[C@@H]1CCCCO[C@H](CN(C)S(=O)(=O)c2cn(C)cn2)[C@H](C)CN([C@@H](C)CO)C(=O)c2cc(NS(C)(=O)=O)ccc2O1
  -6.4	i
Cc1cccc(S(=O)(=O)N2C[C@@H](O)COC[C@@H]3O[C@H](CC(=O)NCc4ccncn4)CC[C@H]32)c1
  0.1	i
C[C@@H]1CCCCO[C@H](CN(C)Cc2ccncc2)[C@H](C)CN([C@@H](C)CO)C(=O)c2cc(NC(=O)CCCN(C)C)ccc2O1
  -5.6	i
O=C(C[C@H]1C[C@@H]2c3cc(NC(=O)Nc4ccccc4)ccc3O[C@@H]2[C@@H](CO)O1)NCCN1CCCCC1
  14	i
Cc1cc(C(=O)Nc2cccc3c2O[C@@H](CN(C)C(=O)Nc2ccc(C(F)(F)F)cc2)[C@@H](C)CN([C@@H](C)CO)C3=O)n(C)n1
  0.3	i
CN1CCN(C(=O)C[C@H]2CC[C@@H](NC(=O)c3ccc4c(c3)OCO4)[C@H](CO)O2)CC1
  2.1	i
C[C@@H]1CN([C@@H](C)CO)C(=O)c2cc(-c3ccc(C#N)cc3)cnc2O[C@@H]1CN(C)Cc1ccncc1
  -0.5	i
C[C@@H]1CN([C@@H](C)CO)C(=O)c2cccc(NS(C)(=O)=O)c2O[C@@H]1CN(C)S(C)(=O)=O
  -3.0	i
C[C@@H]1CN([C@@H](C)CO)C(=O)c2cc(NS(=O)(=O)c3cccs3)ccc2O[C@H]1CN(C)Cc1ccncc1
  -0.6	i
C[C@H]1CN([C@@H](C)CO)C(=O)c2cc(NC(=O)Nc3ccc4c(c3)OCO4)ccc2O[C@@H]1CN(C)S(=O)(=O)c1ccc(Cl)cc1
  5.1	i
Cc1ccc(S(=O)(=O)Nc2ccc3c(c2)CC(=O)N([C@@H](C)CO)C[C@H](C)[C@H](CN(C)Cc2ccc(Oc4ccccc4)cc2)O3)cc1
  -10	i
C[C@H](CO)N1C[C@H](C)[C@H](CN(C)Cc2ccccc2)Oc2cc(C#CC(C)(C)O)ccc2S1(=O)=O
  6.4	i
CO[C@H]1CN(C)C(=O)c2cc(NS(=O)(=O)c3cn(C)cn3)ccc2OC[C@H](C)N(CC2CC2)C[C@H]1C
  0.4	i
Cc1noc(C)c1NC(=O)Nc1ccc2c(c1)C(=O)N([C@@H](C)CO)C[C@@H](C)[C@H](CN(C)Cc1ccc(Cl)c(Cl)c1)OCCCC[C@@H](C)O2
  7.3	i
CCCNC(=O)N1CC2(CN(CC3CCCCC3)C2)c2c(n(C)c3cc(OC)ccc23)[C@H]1CO
  u	i
CN(C)C(=O)C[C@H]1C[C@@H]2c3cc(NC(=O)c4ccc5c(c4)OCO5)ccc3O[C@@H]2[C@@H](CO)O1
  -0.5	i
CN1C(=O)c2cc(NC(=O)C3CCCC3)ccc2OC[C@@H]2O[C@H](CC(=O)NCCc3ccncc3)CC[C@H]21
  3.2	i
O=C(NCC[C@@H]1CC[C@@H](NC(=O)c2cccnc2)[C@H](CO)O1)Nc1ccc(Cl)cc1
  14	i
CO[C@@H]1CN(C)C(=O)c2ccc(NC(C)=O)cc2OC[C@H](C)N(Cc2ccccc2C(=O)O)C[C@H]1C
  -1.6	i
O=C(Nc1ccc(F)cc1)N1CC(=O)N2[C@H](C1)[C@H](c1ccc(C3=CCCC3)cc1)[C@@H]2CO
  -0.2	i
C[C@H](CO)N1C[C@H](C)[C@H](CN(C)S(=O)(=O)c2cccc(F)c2)OCc2cnnn2CCCC1=O
  -0.9	i
CO[C@@H]1CN(C)C(=O)c2cc(NC(C)=O)ccc2OC[C@@H](C)N(Cc2ccncc2)C[C@H]1C
  -2.6	i
CC(=O)N(C)C[C@H]1Oc2cc(/C=C/c3ccccc3)ccc2S(=O)(=O)N([C@@H](C)CO)C[C@H]1C
  2.1	i
COCC#Cc1ccc2c(c1)O[C@@H](CN(C)S(=O)(=O)c1ccc(F)cc1)[C@@H](C)CN([C@H](C)CO)S2(=O)=O
  -4.8	i
C[C@@H]1CCCCO[C@H](CN(C)Cc2ccccc2)[C@@H](C)CN([C@@H](C)CO)C(=O)c2cc(NC(=O)C3CCCCC3)ccc2O1
  15	i
CC(C)NC(=O)Nc1ccc2c(c1)C(=O)N([C@H](C)CO)C[C@@H](C)[C@H](CN(C)Cc1ccc(C(=O)Nc3ccccc3N)cc1)O2
  -2.0	i
CN1C(=O)c2cc(NC(=O)c3cnccn3)ccc2OC[C@H]2O[C@@H](CC(=O)NC3CCC3)CC[C@@H]21
  -1.8	i
COc1ccc2c3c(n(C)c2c1)[C@@H](CO)NCC31CCN(S(=O)(=O)c2cccc(C)c2)CC1
  27*	i
O=C(NCC[C@H]1CC[C@@H](NC(=O)c2cccnc2)[C@H](CO)O1)Nc1ccc(F)cc1
  11	i

Second line of a record: MLL AF4-AF9 inh	FGF22 binding
CCCNC(=O)[C@@H]1[C@@H](CO)[C@@H]2Cn3c(ccc(C4=CCCCC4)c3=O)[C@H]1N2Cc1cocn1
  2.5	i
COCC(=O)N(C)C[C@@H]1Oc2cc(C#Cc3ccccc3)ccc2S(=O)(=O)N([C@@H](C)CO)C[C@@H]1C
  5.3	i
O=C(C1CCOCC1)N1C[C@@H]2[C@H](c3ccccc31)[C@H](CO)N2C(=O)c1ccccc1
  -0.5	i
C[C@@H]1CN([C@@H](C)CO)C(=O)c2cccc(NC(=O)C3CCCCC3)c2O[C@@H]1CN(C)S(=O)(=O)c1ccccc1
  -6.5	i
CCN(C[C@H]1[C@H](c2ccccc2)[C@@H](CO)N1C(C)=O)C(=O)NC1CCCC1
  -1.8	i
O=C(O)C[C@@H]1C=C[C@H](NC(=O)Nc2ccccc2)[C@H](CO)O1
  -2.1	i
C[C@H]1CN([C@@H](C)CO)S(=O)(=O)c2ccc(-c3cccc(C(=O)N(C)C)c3)cc2O[C@H]1CN(C)C(=O)Cc1ccccn1
  3.0	i
COCC(=O)NC[C@@H]1[C@@H](c2ccc(C3=CCCC3)cc2)[C@@H](CO)N1C(=O)C1CC1
  -1.9	i
Cc1noc(C)c1NC(=O)NCC[C@@H]1CC[C@H](NC(=O)c2ccccc2)[C@H](CO)O1
  2.5	i
C[C@@H]1CN([C@@H](C)CO)S(=O)(=O)c2ccc(C#CC3CC3)cc2O[C@H]1CN(C)Cc1ccncc1
  6.0	i
C[C@@H]1CCCCO[C@@H](CN(C)CC2CC2)[C@@H](C)CN([C@H](C)CO)C(=O)c2cc(NC(=O)C3CCCCC3)ccc2O1
  -6.1	i
CO[C@@H]1CN(C)C(=O)c2cc(NC(=O)C3CC3)ccc2OC[C@@H](C)N(Cc2ccccc2)C[C@H]1C
  1.7	i
CC(=O)N1[C@H](C(=O)N(C)C)[C@@H](CO)[C@@H]2Cn3c(ccc(-c4ccc(F)cc4)c3=O)[C@@H]21
  -2.3	i
CC(=O)N(C)C[C@H]1Oc2ncc(C#Cc3ccc(F)cc3)cc2C(=O)N([C@@H](C)CO)C[C@H]1C
  -2.8	i
C[C@@H]1CN([C@H](C)CO)C(=O)c2cc(NS(=O)(=O)c3cn(C)cn3)ccc2O[C@@H]1CN(C)Cc1ccc(-c2ccccc2)cc1
  -1.2	i
C[C@@H]1CN([C@H](C)CO)C(=O)c2cc(-c3cccnc3)cnc2O[C@H]1CN(C)C(=O)C1CC1
  -3.1	i

Random excerpt: 3 compounds from above.
Second line of a record: MLL AF4-AF9 inh	FGF22 binding
C[C@@H]1CN([C@H](C)CO)C(=O)c2cc(NS(=O)(=O)c3cn(C)cn3)ccc2O[C@@H]1CN(C)Cc1ccc(-c2ccccc2)cc1
  -1.2	i
Cc1noc(C)c1NC(=O)NCC[C@@H]1CC[C@H](NC(=O)c2ccccc2)[C@H](CO)O1
  2.5	i
C[C@@H]1CN([C@@H](C)CO)C(=O)c2cccc(NC(=O)C3CCCCC3)c2O[C@@H]1CN(C)S(=O)(=O)c1ccccc1
  -6.5	i

Three compounds from above, arranged by their value in MLL AF4-AF9 inh, smallest number first:
Second line of a record: MLL AF4-AF9 inh	FGF22 binding
CC(C)NC(=O)Nc1ccc2c(c1)C(=O)N([C@H](C)CO)C[C@@H](C)[C@H](CN(C)Cc1ccc(C(=O)Nc3ccccc3N)cc1)O2
  -2.0	i
CCCN1[C@@H]2c3ccc(-c4ccccc4OC)c(=O)n3C[C@H]1[C@H](CO)[C@H]2C(=O)NCc1ccccn1
  -0.5	i
CO[C@@H]1CC[C@H]2CCN(C)C(=O)[C@H](C)CN(C)C(=O)c3cc(C#N)ccc3OC[C@@H]1O2
  0.5	i
